# High-throughput results from PubChem.
# ID4 SMM – binds human ID4 protein on microarray. AID 624137. calls only. 1.2% of 31,000 active. small molecule microarray, Flag-ID4 binding, fluorescence F/B;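 active = spot signal over background at p below 0.07 in all four prints; compounds were printed on slides so no solution concentration is given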;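 note: a binder raises fluorescence above local background on the spot; about 2 pmol printed per array spot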
# Target sequence (P47928 whole entry, looked up): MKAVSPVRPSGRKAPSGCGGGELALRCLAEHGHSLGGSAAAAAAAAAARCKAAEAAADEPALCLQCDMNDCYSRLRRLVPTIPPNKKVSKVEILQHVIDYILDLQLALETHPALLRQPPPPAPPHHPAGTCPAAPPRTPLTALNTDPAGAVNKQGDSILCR
# Calls only; i = inactive; + = active, no number. A portion of the library, so the mix of outcomes need not match the whole.
SMILES,ID4 SMM
O=C(C[C@@H]1CC[C@H](NC(=O)c2ccncc2)[C@@H](CO)O1)NCC1CC1,i
Cc1cc(N(CC(=O)Nc2ccc(F)c(Cl)c2)S(C)(=O)=O)ccc1Br,i
Cc1cc(OCC(=O)Nc2ccccc2C(=O)O)cc(C)c1Cl,i
O=C(Cn1nnc(-c2ccccc2)n1)Nc1ccccc1C(=O)O,i
CC(CN1CCCCC1)NC(=O)c1cc(-c2ccccn2)nc2ccc(Br)cc12 (stereo not given),i
COC(=O)N(C)C[C@H]1OCc2ccccc2-c2c(n(C)c3ccccc23)C(=O)N([C@H](C)CO)C[C@@H]1C,i
CC(C)C1C(=O)NN(c2ccccc2)C1=S (stereo not given),i
CCOC(=O)c1c(NC(=O)COc2ccccc2Cl)sc2c1CCCC2,i
Cc1ccc(S(=O)(=O)N[C@H]2CC[C@H](CC(=O)N3CCC(Cc4ccccc4)CC3)O[C@@H]2CO)cc1,i
C[C@H]1CN([C@@H](C)CO)S(=O)(=O)c2ccc(C#CC3CC3)cc2O[C@@H]1CN(C)CC1CCOCC1,i
CCC(=O)N(C)C[C@@H]1Oc2ncc(C#Cc3ccccc3)cc2C(=O)N([C@H](C)CO)C[C@@H]1C,i
CC(C)[C@H](C)NC(=O)N(C)C[C@H]1OCc2ccccc2-c2ccccc2C(=O)N([C@H](C)CO)C[C@H]1C,i
COC(=O)c1ccc(NC(=O)CN(c2cc(C(F)(F)F)ccc2Cl)S(C)(=O)=O)cc1,i
COc1ccc(NC(=O)C(C)(C)Oc2ccc(Cl)cc2)c([N+](=O)[O-])c1,i
C[C@H]1CN([C@@H](C)CO)C(=O)c2cc(Br)cnc2O[C@H]1CN(C)C(=O)C1CC1,i
CC(C)CC#Cc1cnc2c(c1)C(=O)N([C@@H](C)CO)C[C@@H](C)[C@H](CN(C)Cc1ccccc1)O2,i
C[C@H]1CN([C@@H](C)CO)C(=O)c2cc(C#Cc3ccccc3)cnc2O[C@H]1CN(C)C(=O)CN(C)C,i
CCn1c(SCC(=O)Nc2cccc(Br)c2)nnc1-c1ccc(Cl)cc1Cl,i
COc1ccc(CCN2C(=O)[C@@]3(Cc4ccccc42)c2ccccc2C(=O)N(C2CCCCC2)[C@H]3c2ccc(CO)cc2)cc1,i
CCC1(C)Cc2nc3nc(SCC(=O)c4ccc(Br)cc4)n(-c4ccccc4)c(=O)c3cc2CO1 (stereo not given),i
C[C@H]1CN([C@@H](C)CO)C(=O)c2cc(-c3cccc(C(=O)N(C)C)c3)cnc2O[C@H]1CN(C)C,i
CN(c1cccc(NC(=O)CN2C(=O)c3cccc4cccc2c34)c1)S(C)(=O)=O,i
O=c1oc2ccccc2cc1-c1csc(Cc2nc(-c3ccc(Br)cc3)cs2)n1,i
CO[C@@H]1CN(C)C(=O)c2cc(NC(C)=O)ccc2OC[C@@H](C)N(Cc2cc(F)ccc2F)C[C@H]1C,i
O=C(C[C@H]1CC[C@@H](NC(=O)Nc2ccc3c(c2)OCO3)[C@H](CO)O1)NCc1ccc(Cl)cc1,i
# Going on with the list.
SMILES,ID4 SMM
COc1ccccc1NC(=O)CNC(=O)c1ccc(F)cc1,i
Cc1ccccc1-c1cnc2c(c1)C(=O)N([C@H](C)CO)C[C@@H](C)[C@@H](CN(C)CC1CCOCC1)O2,i
C/C=C/c1ccc2c(c1)O[C@@H](CN(C)Cc1cncnc1)[C@H](C)CN([C@@H](C)CO)S2(=O)=O,i
COCC#Cc1ccc2c(c1)O[C@H](CN(C)Cc1ccccc1)[C@H](C)CN([C@@H](C)CO)S2(=O)=O,i
Cc1ccc(NC(=O)CCCn2cc([N+](=O)[O-])cn2)cc1Cl,i
Cc1ccccc1-c1nnc(SCC(=O)Nc2ccc(C(C)C)cc2)n1C,i
CC(C)C(NS(=O)(=O)c1ccc(Oc2ccccc2Cl)cc1)C(=O)O (stereo not given),i
Cc1coc(C)c1C(=O)CC1(O)C(=O)N(CCc2ccccc2)c2ccccc21 (stereo not given),i
O=C(CSc1nnc(-c2cccc([N+](=O)[O-])c2)n1-c1ccccc1)Nc1ccc(F)cc1,i
CCCN(C)C[C@@H]1Oc2cc(C#CC(C)C)ccc2S(=O)(=O)N([C@@H](C)CO)C[C@@H]1C,i
O=C(C[C@H]1C=C[C@H](NC(=O)C2CC2)[C@H](CO)O1)NC1CCC1,i
CCCC1=C(C(=O)OCC)C(c2ccccc2Cl)C(C#N)=C(SC)N1 (stereo not given),i
CCCC#Cc1ccc2c(c1)O[C@@H](CN(C)C)[C@@H](C)CN([C@@H](C)CO)S2(=O)=O,i
COCC#Cc1ccc2c(c1)O[C@@H](CN(C)S(=O)(=O)c1ccc(F)cc1)[C@H](C)CN([C@H](C)CO)S2(=O)=O,i
COc1ccccc1Nc1nc(N)nc(CN2CCOCC2)n1,i
Cn1c(SCCC(=O)O)nnc1-c1ccncc1,i
CCCC#Cc1ccc2c(c1)O[C@@H](CN(C)Cc1ccccc1)[C@H](C)CN([C@H](C)CO)S2(=O)=O,i
O=C(CSc1nnc(-c2ccncc2)n1-c1ccc(F)cc1)c1ccccc1,i
C=CCN1C(=O)C(O)(CC(=O)c2ccc(OC)c([N+](=O)[O-])c2)c2ccccc21 (stereo not given),i
CC(C)c1ccc(OCc2ccc(C(=O)N(C)C)o2)cc1,i
Cc1cccc(NC(=O)CSc2nnc3c4ccccc4nc(-c4ccccc4)n23)c1,i
Cc1c(CCC(=O)O)c(=O)oc2c(C)c(OCc3c(F)cccc3Cl)ccc12,i
O=C(C[C@H]1C=C[C@@H](NC(=O)C2CCC2)[C@@H](CO)O1)NCc1ccccc1Cl,i
COc1cccc(-c2ccc3c(c2)O[C@H](CN(C)C)[C@@H](C)CN([C@@H](C)CO)S3(=O)=O)c1,i
O=S(=O)(NCc1ccccn1)c1cc(Cl)c(Cl)cc1Cl,i

# The last 6 entries of the section before are carried over, then new ones follow:
SMILES,ID4 SMM
CC(C)c1ccc(OCc2ccc(C(=O)N(C)C)o2)cc1,i
Cc1cccc(NC(=O)CSc2nnc3c4ccccc4nc(-c4ccccc4)n23)c1,i
Cc1c(CCC(=O)O)c(=O)oc2c(C)c(OCc3c(F)cccc3Cl)ccc12,i
O=C(C[C@H]1C=C[C@@H](NC(=O)C2CCC2)[C@@H](CO)O1)NCc1ccccc1Cl,i
COc1cccc(-c2ccc3c(c2)O[C@H](CN(C)C)[C@@H](C)CN([C@@H](C)CO)S3(=O)=O)c1,i
O=S(=O)(NCc1ccccn1)c1cc(Cl)c(Cl)cc1Cl,i
C[C@@H]1CN([C@H](C)CO)S(=O)(=O)c2ccc(C#CC3(O)CCCC3)cc2O[C@@H]1CN(C)C(=O)Cc1cccnc1,i
O=c1[nH]nc(SCCS(=O)(=O)c2ccc(F)cc2)n1Cc1ccco1,i
O=C(C[C@H]1C=C[C@@H](NC(=O)c2ccncc2)[C@H](CO)O1)NCCc1ccncc1,i
CS(=O)(=O)N(CC(=O)Nc1cccnc1)c1cccc(Br)c1,i
CN(C)c1ccc2c3c(ccc(N(C)C)c13)[C@](O)(C(F)(F)F)O[C@]2(O)C(F)(F)F,i
CCCNC(=O)N[C@@H]1CC[C@H](CC(=O)NC2CCC2)O[C@@H]1CO,i
C[C@H]1CN([C@@H](C)CO)S(=O)(=O)c2ccc(-c3cccc(F)c3)cc2O[C@@H]1CN(C)C,i
Cc1ccc(NC(=O)Cn2cc(C(=O)c3cccs3)c3ccccc32)cc1Cl,i
O=C(O)CN(c1ccccc1)S(=O)(=O)c1ccc(Cl)c(Cl)c1,i
Cc1ccc(N(C(C)C(=O)Nc2ccccc2-c2ccccc2)S(C)(=O)=O)cc1 (stereo not given),i
C[C@H](CO)N1C[C@H](C)[C@@H](CN(C)CC2CC2)Oc2cc(-c3cccc(C#N)c3)ccc2S1(=O)=O,i
CN1CCN(CCCNc2c([N+](=O)[O-])c(=O)oc3ccccc23)CC1,i
Cc1cc(NC(=O)CN(c2cc(Cl)ccc2C)S(C)(=O)=O)ccc1Br,i
C[C@H](CO)N1C[C@H](C)[C@H](CN(C)Cc2ccccc2F)Oc2ncc(C#CCN(C)C)cc2C1=O,i
COc1cccc(-c2cnc3c(c2)C(=O)N([C@H](C)CO)C[C@H](C)[C@@H](CN(C)CC2CCCC2)O3)c1,i
COc1ccc(C(=O)CSc2cc(C)nc3nc(C)nn23)cc1OC,i
O=C(CSc1nc2sc3c(c2c(=O)n1Cc1ccco1)CCC3)c1ccccc1,i
COC(=O)C1=CO[C@@H](O[C@@H]2O[C@H](CO)[C@@H](O)[C@H](O)[C@H]2O)[C@H]([C@H](C)OC(C)=O)[C@@H]1CC(=O)O,i
CS(=O)(=O)N(CC(=O)Nc1cccc(F)c1)c1cccc2ccccc12,i
COc1ccc(S(=O)(=O)N(C)CC(=O)O)cc1C,i
Cc1cc(OCC(=O)Nc2ccccc2C(N)=O)c(C)cc1Br,i
C/C=C/c1cnc2c(c1)C(=O)N([C@H](C)CO)C[C@@H](C)[C@@H](CN(C)Cc1ccc(F)cc1)O2,i
Cc1nn(-c2nnc(C)c(=O)[nH]2)c(C)c1SCC(=O)Nc1ccc(C(C)C)cc1,i
O=C(CSc1nnc(-c2ccccc2Cl)n1-c1ccccc1)N1CCc2ccccc21,i
O=C(COc1cccc(NC(=O)c2ccccc2Cl)c1)c1ccc(F)cc1,i
# Other records:
SMILES,ID4 SMM
O=C(Nc1cc(-c2ccc(Cl)cc2)nn1-c1ccc(F)cc1)C1CCC1,i
O=C(COc1ccc(Cl)cc1Cl)Nc1ccc(C(=O)Nc2ccccc2C(=O)O)cc1,i
CC(C)CC#Cc1cnc2c(c1)C(=O)N([C@H](C)CO)C[C@@H](C)[C@@H](CN(C)Cc1ccccc1C(=O)O)O2,i
C[C@@H]1CN([C@H](C)CO)S(=O)(=O)c2ccc(-c3ccccc3F)cc2O[C@H]1CN(C)C,i
COc1cccc(-c2cnc3c(c2)C(=O)N([C@H](C)CO)C[C@@H](C)[C@@H](CN(C)CC2CC2)O3)c1,i
C[C@H](CO)N1C[C@H](C)[C@H](CN(C)C(=O)Nc2cccc(C(F)(F)F)c2)OCc2ccccc2-c2ccccc2C1=O,i
NC(=O)CSCC(=O)Nc1ccc(Br)cc1,i
CCN(CC(=O)Nc1ccccc1Br)S(=O)(=O)c1ccc2ccccc2c1,i
COc1ccc(NC(=O)CSc2ccccn2)cc1Cl,i
c1ccc2c(c1)CN1CCCC1=N2,i
CC1(C)CC(=O)C2=C(C1)N(Cc1cccnc1)C(=O)C2(NC(=O)c1cccs1)C(F)(F)F (stereo not given),i
COc1ccc(S(=O)(=O)NCC2CCCO2)cc1-c1nnc2c3ccccc3c(C)nn12 (stereo not given),i
CNC[C@H]1Oc2cc(C#Cc3cccc(F)c3)ccc2S(=O)(=O)N([C@@H](C)CO)C[C@H]1C,i
O=C(C[C@@H]1CC[C@@H](NC(=O)CN2CCOCC2)[C@H](CO)O1)NCCc1ccncc1,i
O=P(CCNCc1cccnc1)(c1ccccc1)c1ccccc1,+
COCC(=O)N1[C@H](C#N)[C@@H](c2ccc(C#Cc3ccccc3F)cc2)[C@H]1CO,i
CCCN(C)C[C@H]1Oc2cc(C3=CCCCC3)ccc2S(=O)(=O)N([C@H](C)CO)C[C@H]1C,i
CCOC(=O)c1c(NC(=O)CSc2nc(C)ccc2C#N)sc2c1CCC2,i
Cc1cc(C)cc(NC(=O)c2ccc(NS(=O)(=O)c3cccc4cccnc34)cc2)c1,i
OC(c1ccccc1)c1nc2ccccc2n1CCOc1ccccc1 (stereo not given),i
CS(=O)(=O)N(CC(=O)Nc1cccnc1)c1cccc(F)c1,i
C[C@H]1CN([C@@H](C)CO)C(=O)c2cc(NC(=O)Cc3ccccc3)ccc2O[C@H]1CN(C)C,i
CCn1c(SCC(=O)Nc2cccc(C(C)=O)c2)nnc1-c1ccncc1,i
O=C(C[C@@H]1CC[C@@H](NC(=O)C2CCC2)[C@@H](CO)O1)NCc1ccccc1Cl,i
COc1ccccc1NC(=O)CN(c1ccc(F)c(Cl)c1)S(C)(=O)=O,i

# Compounds listed so far that contain a thiophene ring, fused or not, in the order listed:
SMILES,ID4 SMM
CCOC(=O)c1c(NC(=O)COc2ccccc2Cl)sc2c1CCCC2,i
Cc1ccc(NC(=O)Cn2cc(C(=O)c3cccs3)c3ccccc32)cc1Cl,i
O=C(CSc1nc2sc3c(c2c(=O)n1Cc1ccco1)CCC3)c1ccccc1,i
CC1(C)CC(=O)C2=C(C1)N(Cc1cccnc1)C(=O)C2(NC(=O)c1cccs1)C(F)(F)F (stereo not given),i
CCOC(=O)c1c(NC(=O)CSc2nc(C)ccc2C#N)sc2c1CCC2,i

# Fetched one by one from the list above (four):
SMILES,ID4 SMM
COc1cccc(-c2cnc3c(c2)C(=O)N([C@H](C)CO)C[C@@H](C)[C@@H](CN(C)CC2CC2)O3)c1,i
CCOC(=O)c1c(NC(=O)CSc2nc(C)ccc2C#N)sc2c1CCC2,i
C[C@@H]1CN([C@H](C)CO)S(=O)(=O)c2ccc(-c3ccccc3F)cc2O[C@H]1CN(C)C,i
C[C@H]1CN([C@@H](C)CO)C(=O)c2cc(NC(=O)Cc3ccccc3)ccc2O[C@H]1CN(C)C,i

# More entries
SMILES,ID4 SMM
Cc1ccc(-c2ccc3c(c2)O[C@H](CN(C)C(=O)CN(C)C)[C@H](C)CN([C@@H](C)CO)S3(=O)=O)cc1,i
Cc1sc2nc(SCc3nc4ccccc4[nH]3)n(-c3ccccc3)c(=O)c2c1C,i
Cc1ccc(/C=C/c2ccc(=O)n(Cc3ccccc3Cl)n2)cc1,i
O=C(NC(=S)NCc1cccnc1)c1cc2ccccc2o1,i
CC(C)C#Cc1cnc2c(c1)C(=O)N([C@H](C)CO)C[C@@H](C)[C@@H](CN(C)Cc1ccccc1F)O2,i
CSc1ccccc1NC(=O)CN(c1cc(Cl)ccc1C)S(C)(=O)=O,i
C[C@H](CO)N1C[C@H](C)[C@@H](CN(C)Cc2ccccc2)Oc2ncc(C#CC3(O)CCCC3)cc2C1=O,i
C[C@H]1CN([C@@H](C)CO)C(=O)c2cc(-c3ccccc3F)cnc2O[C@@H]1CN(C)C(=O)C1CCOCC1,i
Cc1ccc(-n2c(SCC(N)=O)nnc2-c2cccs2)cc1,i
C/C=C/c1cnc2c(c1)C(=O)N([C@H](C)CO)C[C@H](C)[C@H](CN(C)Cc1ccncc1)O2,i
CC(=O)N[C@@H]1CC[C@H](CC(=O)NCC2CCCCC2)O[C@@H]1CO,i
Cc1c(Cl)cccc1NC(=O)CSc1nnc(-c2ccc(NC(=O)c3ccccc3Br)cc2)n1C,i
